Screens (PubChem BioAssay)
MLL AF4-AF9 inh = inhibitors of human MLL-AF4/AF9 interaction; AlphaScreen, biotin-AF4 peptide binding to FLAG-AF9; inhibition, % at 10 µM; hit rate 0.47% among 350,000;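 active = every replicate reaching a set inhibition limit, whatever the replicate mean, cut at about 25% in these data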;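 also: 0% = plate neutral control median and 100% = total signal loss; the record names both 10 and 1 µM as test concentration; the first replicate is given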
Target sequence (P42568 whole entry, looked up): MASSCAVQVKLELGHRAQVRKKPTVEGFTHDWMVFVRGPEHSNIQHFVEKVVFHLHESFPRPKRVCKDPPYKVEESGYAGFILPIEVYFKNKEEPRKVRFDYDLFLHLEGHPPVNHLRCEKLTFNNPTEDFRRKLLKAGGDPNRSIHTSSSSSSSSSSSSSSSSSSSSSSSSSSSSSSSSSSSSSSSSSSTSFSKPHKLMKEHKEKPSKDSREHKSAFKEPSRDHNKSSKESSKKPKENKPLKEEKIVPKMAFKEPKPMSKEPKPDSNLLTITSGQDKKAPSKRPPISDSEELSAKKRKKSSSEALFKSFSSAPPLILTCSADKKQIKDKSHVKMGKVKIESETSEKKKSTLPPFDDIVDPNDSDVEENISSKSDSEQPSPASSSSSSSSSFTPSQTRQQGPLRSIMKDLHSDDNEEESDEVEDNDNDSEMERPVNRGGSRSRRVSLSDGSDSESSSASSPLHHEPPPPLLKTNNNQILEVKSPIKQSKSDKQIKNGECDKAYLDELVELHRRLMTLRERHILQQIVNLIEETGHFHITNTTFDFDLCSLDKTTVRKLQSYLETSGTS
* marks the source's active call; other numbers are inactive results; & = joins results of further samples. The list is partial, so the mix of outcomes need not match the whole.

MLL AF4-AF9 inh | canonical_smiles
-1.0 | CN1C(=O)c2cc(NC(=O)c3cccs3)ccc2OC[C@@H]2O[C@H](CC(=O)NCC(F)(F)F)CC[C@@H]21
0.1 | O=C(C[C@H]1C=C[C@H](NS(=O)(=O)c2ccc(F)cc2)[C@@H](CO)O1)NCc1ccc(Cl)c(Cl)c1
3.4 | CC(C)CC#Cc1cnc2c(c1)C(=O)N([C@@H](C)CO)C[C@H](C)[C@@H](CN(C)C(=O)Nc1cccc(F)c1)O2
2.6 | COc1ccc(C#Cc2ccc3c(c2)[C@@H]2[C@@H](CCN2C(=O)c2ccncc2)[C@@H](CO)N3C)cc1
2.4 | C[C@@H]1CN([C@H](C)CO)C(=O)c2cc(C3=CCCCC3)cnc2O[C@H]1CN(C)C(=O)Cc1ccncc1
0.3 | C[C@@H]1CN([C@H](C)CO)C(=O)Cc2cc(NC(=O)Nc3cccc4ccccc34)ccc2O[C@H]1CN(C)Cc1ccc(C(F)(F)F)cc1
-1.4 | COc1ccc(OC)c(NC(=O)CN=[N+]=[N-])c1
-0.8 | Cc1ccc(S(=O)(=O)Nc2ccc3c(c2)C(=O)N([C@@H](C)CO)C[C@H](C)[C@H](CN(C)S(=O)(=O)c2c(C)noc2C)OCCCC[C@@H](C)O3)cc1
-0.2 | N#C[C@@H]1[C@@H](c2ccc(C#CC3CC3)cc2)[C@@H](CO)N1S(=O)(=O)Cc1ccccc1
-2.7 | CCCNC(=O)N1C[C@@H](C)[C@H](OC)CN(C)C(=O)c2ccc(NC(=O)CC)cc2OC[C@@H]1C
-3.4 | COc1ccc(S(=O)(=O)Nc2ccc3c(c2)OC[C@H](C)NC[C@@H](C)[C@H](OC)CN(C)C3=O)cc1
45* | COc1ccc2c3c(n(C)c2c1)[C@@H](CO)NCC31CN(Cc2ccc(Cl)cc2)C1
-0.4&-10.0 | CN(C)Cc1cn(CC[C@@H]2CC[C@@H](NC(=O)Nc3ccccc3F)[C@@H](CO)O2)nn1
-0.9 | CN(C)C(=O)C[C@H]1C[C@H]2c3cc(NC(=O)Nc4ccc(F)cc4)ccc3O[C@H]2[C@@H](CO)O1
-0.9 | O=C(C[C@@H]1C[C@@H]2c3cc(NC(=O)Nc4ccc(C(F)(F)F)cc4)ccc3O[C@@H]2[C@@H](CO)O1)NC1CCCCC1
-2.4 | CNc1cc(-c2cccc(C(=O)N3CCOCC3)c2)ncn1
-2.3 | COc1ccc(NC(=O)N(C)C[C@@H]2Oc3ncc(-c4ccc(C#N)cc4)cc3C(=O)N([C@@H](C)CO)C[C@@H]2C)cc1
-3.6 | CC1(c2nnnn2Cc2ccccc2)CCC(=O)N1Cc1ccc(F)cc1 (centres undefined)
2.2 | C[C@@H]1CCCCO[C@H](CN(C)Cc2ccc(Cl)c(Cl)c2)[C@@H](C)CN([C@@H](C)CO)C(=O)c2cc(NC(=O)Nc3ccc(F)cc3)ccc2O1
-2.5 | O=C(c1cccnc1)N1CC2(C1)[C@@H](c1ccccc1)[C@@H](CO)N2Cc1ccncc1
-1.4 | O=C(C[C@@H]1CC[C@@H](NS(=O)(=O)c2ccccc2)[C@H](CO)O1)NCc1ccncn1
0.5 | CC(C)Oc1ccc(S(=O)(=O)N2CCOCC2)cc1NC(=O)c1nn(C)c(=O)c2ccccc12
7.5 | Cc1ccccc1-c1ccc2c(c1)O[C@@H](CN(C)CC1CC1)[C@@H](C)CN([C@@H](C)CO)S2(=O)=O
-2.4 | CO[C@@H]1CN(C)C(=O)c2cc(NC(=O)c3ccccc3F)ccc2OC[C@H](C)NC[C@H]1C

6 compounds from above, sorted by molar mass, low to high:
MLL AF4-AF9 inh | canonical_smiles
-0.9 | CN(C)C(=O)C[C@H]1C[C@H]2c3cc(NC(=O)Nc4ccc(F)cc4)ccc3O[C@H]2[C@@H](CO)O1
0.5 | CC(C)Oc1ccc(S(=O)(=O)N2CCOCC2)cc1NC(=O)c1nn(C)c(=O)c2ccccc12
-3.4 | COc1ccc(S(=O)(=O)Nc2ccc3c(c2)OC[C@H](C)NC[C@@H](C)[C@H](OC)CN(C)C3=O)cc1
0.1 | O=C(C[C@H]1C=C[C@H](NS(=O)(=O)c2ccc(F)cc2)[C@@H](CO)O1)NCc1ccc(Cl)c(Cl)c1
3.4 | CC(C)CC#Cc1cnc2c(c1)C(=O)N([C@@H](C)CO)C[C@H](C)[C@@H](CN(C)C(=O)Nc1cccc(F)c1)O2
-2.3 | COc1ccc(NC(=O)N(C)C[C@@H]2Oc3ncc(-c4ccc(C#N)cc4)cc3C(=O)N([C@@H](C)CO)C[C@@H]2C)cc1

Additional entries
MLL AF4-AF9 inh | canonical_smiles
-3.1 | C[C@H](CO)N1C[C@H](C)[C@H](CN(C)Cc2ccc(C(F)(F)F)cc2)OCCCC[C@H](C)Oc2ccc(NC(=O)NC3CCCCC3)cc2C1=O
-5.0 | COC(=O)[C@@]12C[C@@H](CC(=O)NCCCN3CCCC3=O)C(=O)N(Cc3ccccc3)C1=CCC(C)(C)C2
0.9 | C[C@H]1CN([C@@H](C)CO)C(=O)Cc2cc(NC(=O)c3ccncc3)ccc2O[C@@H]1CN(C)Cc1ccc(C(=O)Nc2ccccc2N)cc1
-11 | CN(C)CC(=O)N[C@@H]1CC[C@@H](CC(=O)NCc2ccc(Cl)cc2)O[C@@H]1CO
-0.5 | CCCCCC(=O)N1C[C@@H](n2cc(-c3ccc(F)cc3)nn2)[C@H](O)C[C@@H]1c1ccc(OC)cc1
-0.9 | CCCC(=O)Nc1ccc2c(c1)OC[C@H](C)N(C(=O)c1ccncc1)C[C@@H](C)[C@@H](OC)CN(C)C2=O
-1.8 | Cc1noc(C)c1NC(=O)N(C)C[C@@H]1Oc2c(cccc2N(C)C)C(=O)N([C@@H](C)CO)C[C@H]1C
-0.9 | C[C@@H]1CN([C@H](C)CO)C(=O)c2cc(NC(=O)Cc3ccccc3)ccc2O[C@@H]1CN(C)Cc1ccc2c(c1)OCO2
-0.8 | Cc1noc(C)c1NC(=O)Nc1ccc2c(c1)C(=O)N([C@@H](C)CO)C[C@H](C)[C@@H](CN(C)Cc1ccc3c(c1)OCO3)O2
-0.1 | CO[C@H](CN(C)S(=O)(=O)c1cn(C)cn1)[C@H](C)CN(C(=O)Nc1ccc(C(F)(F)F)cc1)[C@H](C)CO
1.4 | CCC(C)NS(=O)(=O)c1ccc(NC(=O)CNCc2cccs2)cc1 (centres undefined)
-4.8 | OC(c1ccccc1)c1nc(-c2ccc(F)c(Cl)c2)cs1 (centres undefined)
-1.0 | Cn1cnc(S(=O)(=O)N[C@@H]2C=C[C@H](CC(=O)Nc3ccc(-c4ccccc4)cc3)O[C@H]2CO)c1
-0.7 | CCNC(=O)[C@H]1[C@H](CO)[C@H]2Cn3c(ccc(-c4cccc(OC)c4)c3=O)[C@H]2N1C(=O)NC(C)C
-3.8 | CCOC(=O)C1=C[C@@H](c2ccccc2)N(S(=O)(=O)c2ccc(C)cc2)[C@H]1c1ccc(OC)cc1
-0.1 | COc1cccc(CNc2nc3cc(-c4ccsc4)sc3c(=O)n2C)c1OC
6.4 | NC(=O)c1ccc(NC(=O)CNc2cc(S(=O)(=O)N3CCOCC3)ccc2N2CCCC2)cc1
5.3 | C[C@@H]1CN([C@@H](C)CO)S(=O)(=O)c2ccc(-c3ccccc3F)cc2O[C@@H]1CN(C)Cc1ccncc1
-9.7 | C#CCOCCOCCOCCNc1nc(N2CCN(C(=O)[C@H]([C@@H](C)CC)n3cc(CCC(=O)O)nn3)CC2)nc(N2CCN(C(=O)[C@H](CCCCN)n3cc(CCC(=O)O)nn3)CC2)n1
-2.2 | COCc1cn(CC[C@H]2CC[C@@H](NC(=O)Cc3cccnc3)[C@@H](CO)O2)nn1
-2.1 | COc1ccc2c3c([nH]c2c1)[C@H](CO)N(CC1CC1)CC31CCN(S(=O)(=O)c2cccc(F)c2)CC1
1.0 | C[C@@H]1CN([C@H](C)CO)C(=O)c2cc(NC(=O)Nc3ccc4c(c3)OCO4)ccc2O[C@@H](C)CCCCO[C@H]1CN(C)Cc1ccc(C(=O)O)cc1
-2.4 | COCC(=O)Nc1ccc2c(c1)OC[C@H](C)N(C(=O)Cc1cccnc1)C[C@@H](C)[C@H](OC)CN(C)C2=O
-1.1 | Cc1ccccc1CN1CCN(C(=O)[C@H]2O[C@@H](n3ccc(=O)[nH]c3=O)[C@H](O)[C@@H]2O)CC1
-3.1 | C[C@@H]1CCCCO[C@@H](CN(C)S(C)(=O)=O)[C@H](C)CN([C@@H](C)CO)C(=O)c2cc(NC(=O)C3CCCCC3)ccc2O1
-2.4 | C[C@@H]1CCCCO[C@@H](CN(C)C(=O)Nc2cccc3ccccc23)[C@H](C)CN([C@H](C)CO)C(=O)c2cc(NS(=O)(=O)c3ccccc3)ccc2O1
1.3 | C[C@@H]1CN([C@H](C)CO)C(=O)Cc2cc(NC(=O)C3CCCCC3)ccc2O[C@@H]1CN(C)Cc1ccc2c(c1)OCO2
1.4 | O=C([C@H]1[C@H](CO)[C@H]2Cn3c(ccc(-c4ccc(F)cc4)c3=O)[C@H]2N1Cc1cocn1)N1CCOCC1
-3.0 | Nc1sc(-c2ccccc2)cc1C(=O)NCCc1ccc(Cl)cc1
22 | CNC[C@@H]1Oc2cc(C#CCN(C)C)ccc2S(=O)(=O)N([C@@H](C)CO)C[C@@H]1C
-1.2 | COc1ccc(S(=O)(=O)N(C)C[C@@H]2OCc3ccccc3-c3ccccc3C(=O)N([C@H](C)CO)C[C@@H]2C)cc1
0.9 | CO[C@H]1CC[C@@H]2CCOc3ccc(C#N)cc3C(=O)N(C)C[C@H](c3ccccc3)CC(=O)N(C)C[C@H]1O2
0.9 | Cc1ccc(S(=O)(=O)Nc2ccc3c(c2)C(=O)N([C@@H](C)CO)C[C@H](C)[C@@H](CN(C)C(=O)Nc2ccccc2)OCCCC[C@H](C)O3)cc1
2.3 | CCS(=O)(=O)N1CCC2(CC1)CN(C(=O)c1ccc(F)cc1)[C@@H](CO)c1c2c2ccc(OC)cc2n1C
-3.9 | CC(=O)Nc1cccc(-c2ccnc3c2CC(C)(C(=O)Nc2cccc(OC(F)(F)F)c2)O3)c1 (centres undefined)
1.2 | Cc1ccc(S(=O)(=O)N(C)C[C@H]2Oc3ccc(NC(=O)C4CC4)cc3CC(=O)N([C@H](C)CO)C[C@H]2C)cc1
0.1 | COc1ccccc1-c1ccc2c(c1)O[C@H](CN(C)CC1CCOCC1)[C@@H](C)CN([C@H](C)CO)S2(=O)=O
2.2 | C[C@H]1CN([C@@H](C)CO)C(=O)Cc2cc(NC(=O)C3CCCCC3)ccc2O[C@H]1CN(C)C
2.0 | COc1ccc2c3c(n(C)c2c1)[C@H](CO)N(C(=O)Nc1c(C)noc1C)CC31CCN(CC2CC2)CC1
-5.1 | Cc1noc(C)c1NC(=O)N(C)C[C@@H]1OCCCC[C@H](C)Oc2ccc(NC(=O)c3ccncc3)cc2C(=O)N([C@H](C)CO)C[C@H]1C
7.8 | Cc1noc(C)c1S(=O)(=O)N(C)C[C@@H]1Oc2ccc(NS(=O)(=O)c3ccc(F)cc3)cc2CC(=O)N([C@H](C)CO)C[C@@H]1C
-2.2 | C[C@H]1CN([C@@H](C)CO)C(=O)c2cc(C3=CCCC3)cnc2O[C@@H]1CN(C)C(=O)C1CCCCC1
1.1 | Cc1noc(C)c1S(=O)(=O)N(C)C[C@H]1OCCCC[C@H](C)Oc2ccc(NC(=O)Nc3ccc(C(F)(F)F)cc3)cc2C(=O)N([C@H](C)CO)C[C@H]1C
0.5 | O=S(=O)(Cc1ccccc1)NCC[C@@H]1CC[C@@H](NS(=O)(=O)c2ccc(F)cc2)[C@@H](CO)O1
0.4 | COCC(=O)Nc1ccc2c(c1)C(=O)N(C)C[C@H](OC)[C@@H](C)CN(CC1CC1)[C@@H](C)CO2
-1.6 | C[C@@H]1CN([C@@H](C)CO)C(=O)c2cc(NC(=O)Cc3ccccc3)ccc2O[C@@H]1CN(C)C(=O)Nc1ccccc1
-2.0 | CN1CCN(C(=O)C[C@@H]2CC[C@H]3[C@@H](COC[C@@H](O)CN3Cc3ccc4c(c3)OCO4)O2)CC1
-1.6 | O=C(C[C@@H]1C=C[C@H](NC(=O)c2ccccc2)[C@@H](CO)O1)NCCc1ccncc1

Pulled by compound from above:
MLL AF4-AF9 inh | canonical_smiles
3.4 | CC(C)CC#Cc1cnc2c(c1)C(=O)N([C@@H](C)CO)C[C@H](C)[C@@H](CN(C)C(=O)Nc1cccc(F)c1)O2
1.4 | O=C([C@H]1[C@H](CO)[C@H]2Cn3c(ccc(-c4ccc(F)cc4)c3=O)[C@H]2N1Cc1cocn1)N1CCOCC1
-0.9 | CCCC(=O)Nc1ccc2c(c1)OC[C@H](C)N(C(=O)c1ccncc1)C[C@@H](C)[C@@H](OC)CN(C)C2=O

Additional records
MLL AF4-AF9 inh | canonical_smiles
-5.0 | C[C@H](CO)N1C[C@H](C)[C@H](CN(C)C(=O)C2CCOCC2)Oc2ncc(/C=C/c3ccccc3)cc2C1=O
1.9 | COc1ccc(NC(=O)Nc2ccc3c(c2)CC(=O)N([C@@H](C)CO)C[C@@H](C)[C@@H](CN(C)Cc2ccccc2)O3)cc1
1.5 | C[C@@H]1CCCCO[C@H](CN(C)S(=O)(=O)c2ccc(Cl)cc2)[C@H](C)CN([C@@H](C)CO)C(=O)c2cc(NS(=O)(=O)c3cccs3)ccc2O1
0.7 | N#C[C@H]1[C@@H](c2ccc(C#CCC3CCCC3)cc2)[C@@H](CO)N1C(=O)c1ccccn1
-3.5 | CS(=O)(=O)Nc1cccc(NC(=O)C2Cc3c(-c4ccccc4)ccnc3O2)c1 (centres undefined)
-1.2 | O=C(NCC[C@@H]1CC[C@@H](NS(=O)(=O)c2ccccc2)[C@H](CO)O1)c1ccc2c(c1)OCO2
0.2 | CC(C)NC(=O)C1(C)CCN1C(=O)Cc1ccc(-c2ccccc2)cc1 (centres undefined)
0.5 | C[C@H](CO)N1C[C@H](C)[C@@H](CN(C)Cc2ccc(C(=O)Nc3ccccc3N)cc2)Oc2ccc(NC(=O)Cc3ccccc3)cc2C1=O
5.7 | CC(C)NC(=O)Nc1ccc2c(c1)C(=O)N([C@H](C)CO)C[C@@H](C)[C@@H](CN(C)S(=O)(=O)c1ccc(Cl)cc1)OCCCC[C@@H](C)O2
8.2 | COc1ccccc1Cc1c(-c2ccc(OC)c(OC)c2)nc2ccc(C)cn12
